# Compound activity: PubChem, ICCB-Longwood Screening Facility, Harvard Medical School
# Polio RdRp inh: poliovirus RNA polymerase inhibition. P03300. poliovirus polymerase elongation, fluorescence polarization; stronger effect = lower value. % elongation, % (compound at 16.7 µg/mL). 150,000 tested, 0.66% active. AID 588519; in the data active = % elongation below about 90%; also: some results filed as inactive read as strong as hits
# Target sequence (P03300 1749-2209 limits assumed): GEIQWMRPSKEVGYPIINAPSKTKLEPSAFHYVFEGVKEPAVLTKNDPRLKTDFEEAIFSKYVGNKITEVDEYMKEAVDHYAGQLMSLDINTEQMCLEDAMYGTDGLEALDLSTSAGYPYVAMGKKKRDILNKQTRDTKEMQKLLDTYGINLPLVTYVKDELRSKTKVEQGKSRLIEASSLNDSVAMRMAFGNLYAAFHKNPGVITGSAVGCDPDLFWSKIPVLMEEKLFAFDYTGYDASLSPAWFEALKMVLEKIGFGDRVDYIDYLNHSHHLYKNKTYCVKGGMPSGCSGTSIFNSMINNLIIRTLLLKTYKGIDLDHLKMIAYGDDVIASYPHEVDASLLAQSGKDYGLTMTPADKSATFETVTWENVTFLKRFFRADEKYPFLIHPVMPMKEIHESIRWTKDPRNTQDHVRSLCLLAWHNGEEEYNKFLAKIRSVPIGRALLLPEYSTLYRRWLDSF
# Polio RdRp inh intensity: recorded beside Polio RdRp inh, whose call it bears; % elongation; measured here: total intensity read-out; formula for this scale not given here;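 total fluorescence in place of polarization; lower means less elongation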
# * hit, by the source's call. An excerpt (hit frequency here may not be typical).
# Start of the listing, in advance:
no.	smiles	Polio RdRp inh intensity	Polio RdRp inh
1	COc1ccc(CC(=O)N2CCc3cc(OC)c(OC)cc3C2COc2ccc(F)cc2)cc1OC (centres undefined)	113	109
2	COc1ccc2oc(-c3ccc(C)c(NC(=O)c4cccnc4)c3)nc2c1	113	107
3	O=C(Cn1c(-c2cccs2)cc2ccccc21)NCCCN1CCN(c2cccc(Cl)c2)CC1	107	108
4	CN1CCN(c2ccc(-c3nc(-c4ccccc4)no3)cc2[N+](=O)[O-])CC1	109	101
5	CCOc1cccc2sc(NC(=O)c3ccc(S(=O)(=O)N4CCCc5ccccc54)cc3)nc12	107	99

# The listing, repeating the preview:
no.	smiles	Polio RdRp inh intensity	Polio RdRp inh
1	COc1ccc(CC(=O)N2CCc3cc(OC)c(OC)cc3C2COc2ccc(F)cc2)cc1OC (centres undefined)	113	109
2	COc1ccc2oc(-c3ccc(C)c(NC(=O)c4cccnc4)c3)nc2c1	113	107
3	O=C(Cn1c(-c2cccs2)cc2ccccc21)NCCCN1CCN(c2cccc(Cl)c2)CC1	107	108
4	CN1CCN(c2ccc(-c3nc(-c4ccccc4)no3)cc2[N+](=O)[O-])CC1	109	101
5	CCOc1cccc2sc(NC(=O)c3ccc(S(=O)(=O)N4CCCc5ccccc54)cc3)nc12	107	99
6	Cc1ccc(S(=O)(=O)N2CCC(c3ccncc3)CC2)c(C)c1	98	103
7	O=C(Nc1cccc(C(F)(F)F)c1)c1cc(-c2ccc(Cl)cc2)on1	114	100
8	COc1cc(CNC(=O)c2sc3ncccc3c2-n2cccc2)cc(OC)c1OC	109	111
9	Cc1ccc(NC(=O)Cn2nc(-c3ccccc3)nc(Cc3ccccc3)c2=O)cc1	109	110
10	CCOC(=O)c1cccc(NC(=O)N2CC=C(c3c[nH]c4ccccc34)CC2)c1	267	128
11	COc1cccc(C(=O)Nc2nc3nc(C)c(Cc4ccccc4)c(=O)n3[nH]2)c1	106	109
12	COC(=O)c1cc(S(=O)(=O)N2CCN(c3cc(Cl)ccc3C)CC2)c[nH]1	110	111
13	CCc1nn(CC(=O)N2CCN(c3cccc(C)c3)C(C)C2)c(=O)c2cc3sccc3n12 (centres undefined)	100	104
14	CCn1cc2nc(SCc3cccc(C(F)(F)F)c3)n(CCc3ccccc3)c(=O)c2n1	96	109
15	COC(=O)c1ccccc1NC(=O)c1cc(-c2ccc(Cl)cc2)on1	111	106
16	Cc1ccc(-n2c(=O)[nH]c3sc4c(c3c2=O)CCCC4)cc1	107	107
17	Cc1nnc(N2CCC(C(=O)NCc3ccc(N(C)C)cc3)CC2)c2nn(-c3ccccc3)c(C)c12	104	102
18	Cc1cc(Br)ccc1NC(=O)C1CCN(S(=O)(=O)c2cccc3nsnc23)CC1	106	106
19	COc1cc(Nc2nc(SCc3ccccc3Cl)nc3ccccc23)cc(OC)c1	107	102
20	CCOc1ccc(CCNC(=O)CCCn2nc(C)c3sc4ccccc4c3c2=O)cc1	114	110
21	Cc1ccc(C)c(Cn2c(=O)n(Cc3ccco3)c(=O)c3oc4ccccc4c32)c1	104	101
22	Cc1cccc(CNC(=O)C2CCN(c3nc4ccc(Cl)cc4[nH]3)CC2)c1	112	106
23	O=C(NCC(c1cccnc1)N1CCN(c2ccccc2F)CC1)C(=O)Nc1ccc(F)cc1F (centres undefined)	113	111
24	CCOC(=O)c1[nH]c2c(c1Cc1ccccc1)C(=O)CC(c1ccccc1)C2 (centres undefined)	105	101
25	Cc1nc(-n2nc(C)c(Cc3ccc(Cl)cc3)c2C)sc1C(=O)N1CCCCC1C (centres undefined)	95	101
26	COC(=O)c1ccccc1NC(=O)c1cc2nc(-c3ccc(OC)cc3)cc(C(F)(F)F)n2n1	105	100
27	COc1cccc(C2SCC(=O)Nc3c2c(C)nn3-c2ccc(C)c(Cl)c2)c1OC (centres undefined)	113	110
28	COC(=O)c1ccc(C2C=C(c3ccc(Cl)cc3)Nc3nc4ccccc4n32)cc1 (centres undefined)	103	103
29	CC(=O)C1=C(c2ccc(F)cc2)N(C(C)=O)n2c(nnc2C2CCCCC2)S1	111	109
30	COc1ccc(-c2nn(-c3cccc(F)c3)c3c2cnc2cc(OC)c(OC)cc23)cc1	107	103
31	COc1cc(NC(=O)CSc2ncc3c(n2)-c2ccc(Cl)cc2N(Cc2ccccc2)S3(=O)=O)cc(OC)c1	111	106
32	CCc1ccc(-n2nnc(-c3nc(-c4ccc(C)cc4)no3)c2N)cc1	115	113
33	Cc1c(Cl)cccc1NC(=O)CSc1nc(=O)n(Cc2ccccn2)c2c1CCC2	95	106
34	COc1ccc2nc(N3CCN(C(=O)C4CC4)CC3)sc2c1	110	113
35	O=C(NCc1ccc2c(c1)CCN2C(=O)c1ccccc1)c1ccc(Br)o1	110	108
36	CCc1ccc(CNC(=O)c2c3c(nc4ccccc24)C(=O)N(C2CCCCC2)C3)cc1	112	102
37	O=C(Cn1cc(SCc2ccc(C(F)(F)F)cc2)c2ccccc21)N1CCOCC1	117	121
38	COc1ccc(C(=O)Nc2ccc(-c3cc(C(F)(F)F)nn3-c3ccccc3)cc2)cc1OC	103	101
39	O=C(CNS(=O)(=O)c1cccs1)N1CCN(c2cccc(C(F)(F)F)c2)CC1	125	125
40	Cc1ccc(C(=O)Nc2nc3nc(C)cc(=O)n3[nH]2)cc1	101	104
41	Nc1c(C(=O)Nc2ccc(F)c(Cl)c2)sc2nc3c(cc12)N1CCC3CC1	107	102
42	O=C(CC1N=C2c3ccccc3N=C(SCc3ccc(F)cc3)N2C1=O)NCc1ccc2c(c1)OCO2 (centres undefined)	99	99
43	CC(C)c1ccc(NC(=O)N2c3ccccc3Sc3ccccc32)cc1	106	105
44	Cc1cc(C)c2c(=O)cc(C(=O)Nc3ccc(C)c(Cl)c3)oc2c1	92	99
45	CCCCC(=O)Nc1cc(-c2cn3cccnc3n2)ccc1C	102	105
46	CCc1ccc(CN(C(=O)c2cc(=O)c3ccc(C)cc3o2)C2CCS(=O)(=O)C2)cc1 (centres undefined)	101	104
47	Cc1cc(=O)oc2c3c(ccc12)OCN(Cc1ccc(Cl)cc1)C3	110	108
48	CC1=C(c2ccc(C)cc2)S(=O)(=O)NC1=NCCCN1CCN(c2cc(C)ccc2C)CC1	109	114
49	CCCN1CCc2nc(N3CCN(c4ncccn4)CC3)ncc2C1	101	102
50	COC(=O)CSc1nc(-c2ccc(F)cc2)cc(C(F)(F)F)n1	98	103
51	Cc1cc(C)n(CC(=O)Nc2ccc(F)c(F)c2)c(=O)c1C#N	108	105
52	CCOC(=O)C(CC)Sc1nnc2[nH]c(=O)cc(C)n12 (centres undefined)	113	107
53	Cc1ccc(-n2nc3c(N4CCC(C(=O)NCCC(C)C)CC4)nnc(C)c3c2C)cc1	96	98
54	Cc1oc(-c2ccccc2F)nc1CS(=O)(=O)CC(=O)N1CCN(c2ccc(Cl)cc2)CC1	102	101
55	COc1ccc(C(=O)Nc2ccc(-c3cc4ccccc4oc3=O)c(C)c2)cc1OC	109	108
56	Cc1cc(C)cc(N(CC(=O)NCCc2ccc(Cl)cc2)S(=O)(=O)c2c(C)noc2C)c1	112	110
57	COc1cc(SC)ccc1C(=O)Nc1ccc(S(=O)(=O)Nc2nccc(C)n2)cc1	108	101
58	CCc1nnc(SCc2ccc(OC)cc2)c2cc3sc(C)cc3n12	108	108
59	CCCCn1cnc2cc(NC(=O)c3cc(OC)c(OC)c(OC)c3)ccc21	101	101
60	COCc1cc(C)nc2sc3c(c12)NC(c1ccccc1C(=O)O)N(c1cccc(C(F)(F)F)c1)C3=O (centres undefined)	95	100

# Part of the list above, with two lines to a compound:
# Value order – Polio RdRp inh intensity	Polio RdRp inh
52	CCOC(=O)C(CC)Sc1nnc2[nH]c(=O)cc(C)n12 (centres undefined)
    113	107
57	COc1cc(SC)ccc1C(=O)Nc1ccc(S(=O)(=O)Nc2nccc(C)n2)cc1
    108	101

# Quoted from the listing.
# Under Polio RdRp inh intensity, `COCc1cc(C)nc2sc3c(c12)NC(c1ccccc1C(=O)O)N(c1cccc(C(F)(F)F)c1)C3=O` (centres undefined) is entered as 95
# Under Polio RdRp inh, `CCOC(=O)C(CC)Sc1nnc2[nH]c(=O)cc(C)n12` (centres undefined) is entered as 107
# Under Polio RdRp inh intensity, `Cc1oc(-c2ccccc2F)nc1CS(=O)(=O)CC(=O)N1CCN(c2ccc(Cl)cc2)CC1` is entered as 102

# Next section:
no.	smiles	Polio RdRp inh intensity	Polio RdRp inh
61	CC(C)(C)C1CCc2c(sc(NC(=O)c3cccc(Cl)c3)c2C(N)=O)C1 (centres undefined)	104	105
62	CCOc1ccc2nc(N3CCCC(C(=O)NCCc4ccc(C)cc4)C3)sc2c1 (centres undefined)	109	107
63	CCOC(=O)c1ccccc1NC(=O)N1CC(C)Oc2ccc(C)cc21 (centres undefined)	110	104
64	COc1cccc(-c2nc(CS(=O)(=O)CC(=O)NCCCc3ccccc3)c(C)o2)c1	108	109
65	CC(C)c1ccc(C2=CC(c3cccc(Cl)c3)n3ncnc3N2)cc1 (centres undefined)	107	104
66	CCc1nc2ccccc2n2c(-c3ccccc3)c3c(=O)n(C)c(=O)n(C)c3c12	112	108
67	Cc1cc(C)cc(OCC(=O)Nc2nc(-c3ccc(F)cc3)ns2)c1	113	106
68	COc1ccc(NC(=O)c2cc3c(=O)n(C)c4cc(Cl)ccc4c3s2)cc1Cl	106	108
69	O=C(CSc1nc(-c2cccc(F)c2)[nH]c1-c1ccccc1)Nc1ccc2c(c1)OCO2	111	113
70	Cc1ccc(N2CCn3c2nc2c3c(=O)n(CCc3ccccc3)c(=O)n2C)cc1C	112	111
71	COc1ccc(-c2nc3ccccc3n2Cc2ccc(Cl)cc2)cc1	108	107
72	Cc1ccc(C(=O)CSc2nc(-c3ccccc3)nc3c2CCCC3)cc1C	113	108
73	O=C(Nc1cccc(C(F)(F)F)c1)c1cccc(C(=O)Nc2cccc(C(F)(F)F)c2)c1	115	105
74	CCOc1ccc(NC(=O)C2CCN(S(=O)(=O)c3c(C)noc3/C=C/c3ccco3)CC2)cc1	110	107
75	COc1ccccc1CNC(=O)C1CCN(S(=O)(=O)Cc2ccccc2)CC1	109	111
76	Cc1ccc2c(c1)c(=O)c1ccccc1n2CCCC(=O)Nc1ccc(F)cc1F	106	105
77	COc1ccc(S(=O)(=O)N2CCN(Cc3ccc4c(c3)OCO4)CC2)cc1OC	107	103
78	CCOC(=O)c1noc2nc(C)n(CC(=O)Nc3ccc(Br)cc3C)c(=O)c12	98	104
79	Cc1ccc([N+](=O)[O-])cc1NC(=O)CN(c1ccccc1)S(=O)(=O)N(C)C	90	102
80	Cc1ccc(C)c(N2CCN(C(=O)C3CCCN(S(=O)(=O)c4cccc5nsnc45)C3)CC2)c1 (centres undefined)	107	107
81	CC(C)CN(CCNC(=O)CN1C(=O)CSc2ccc(S(=O)(=O)N3CCOCC3)cc21)CC(C)C	107	111
82	CC1(C)N=C(SCc2ccccc2Cl)c2ccccc2N1	103	111
83	Cn1c(=O)oc2cc(S(=O)(=O)N3CCC(C(=O)Nc4ccc(F)c(Cl)c4)CC3)ccc21	111	108
84	O=C(NCc1ccccc1)c1nc(S(=O)(=O)Cc2ccccc2)ncc1Cl	104	101
85	CSc1cccc(NC(=O)C(c2ccccc2)N2Cc3ccccc3C2=O)c1 (centres undefined)	107	102
86	COc1ccccc1CCNC(=O)Cc1c(C)c2c(O)cc(C)cc2oc1=O	107	107
87	CCc1ccc(-n2nc(C)c3c(C(=O)N4CCN(c5ccccc5)CC4)cc(C)nc32)cc1	118	113
88	COc1ccc(C2C(C(=O)Nc3cccnc3)=C(C)Nc3nc(-c4ccccc4)nn32)cc1OC (centres undefined)	111	105
89	CC(=O)N1CCc2c(sc3c2c(=O)n(-c2cc(Cl)ccc2C)c(=O)n3Cc2ccccc2F)C1	103	103
90	CCOc1ccc(C(=O)c2oc3ccccc3c2NC(=O)Cc2coc3ccc(CC)cc23)cc1	120	120
91	CCCNC(=O)C1CCN(S(=O)(=O)c2ccc3c(c2)CCCN3C(C)=O)CC1	101	111
92	CC(C)Cn1c(=O)c2sccc2n2c(CCCC(=O)Nc3ccc(Cl)cc3)nnc12	119	114
93	O=C(NCCc1ccc(Cl)cc1)c1cnc2sc(N3CCOCC3)nn2c1=O	104	104
94	CCSc1nnc(NC(=O)c2cccn(Cc3ccccc3Cl)c2=O)s1	114	111
95	Cc1cc(C)cc(N2CCn3c2nc2c3c(=O)n(CCCc3ccccc3)c(=O)n2C)c1	103	106
96	CCCCC(=O)Nc1ccc(OCc2cc(=O)n3ccc(C)cc3n2)cc1	112	112
97	CCn1c(=O)c2sccc2n2c(CCC(=O)NCc3ccc(Cl)cc3)nnc12	109	106
98	COc1cc(-c2noc(-c3cc4cccc(C)c4oc3=O)n2)cc(OC)c1OC	116	111
99	Cc1ccc2c(=O)cc(C(=O)Nc3sc4c(c3C(=O)NCc3ccco3)CCC4)oc2c1C	113	110
100	O=C(Nc1nc2ccc(F)cc2s1)c1nc(S(=O)(=O)Cc2ccccc2)ncc1Cl	110	105
101	COCCCNC(=O)CCCn1c(=O)c2cccn2c2ccccc21	107	100
102	CCOc1ccccc1NC(=O)c1c(NC(=O)Cc2ccc(OC)cc2)sc2c1CCC2	110	107
103	CCN(C(=O)c1cn(CC)c(=O)c2cc(OC)c(OC)cc12)c1ccccc1F	102	105
104	COc1ccc(CNC(=O)c2ccc(N3CCCC3)c(NC(=O)NCc3ccc(C)cc3)c2)cc1	103	101
105	CSc1nnc(NC(=O)c2cc(=O)c3cc(C)c(C)cc3o2)s1	112	111
106	Cc1onc(-c2ccc(F)cc2F)c1C(=O)Nc1cccc(C(F)(F)F)c1	113	110
107	Cc1ccc(-n2nc3c(=O)n(C(C)C(=O)NCc4ccc(OC(C)C)cc4)nc(C)c3c2C)cc1 (centres undefined)	106	104
108	CC(C)CCNC(=O)c1ccc2c(c1)NC(=O)C(C(C)C)N2 (centres undefined)	106	104
109	COc1ccc(CNC(=O)Nc2cn(CC(C)C)c(=O)c3ccccc23)c(OC)c1	23*	-10*
110	CCc1ccc(NC(=O)CSC2=Nc3ccccc3C3=NC(CC(=O)NCc4ccc5c(c4)OCO5)C(=O)N23)cc1 (centres undefined)	101	108
111	Cc1ccc(N2CC(c3nc(-c4ccc(Cl)cc4)no3)CC2=O)cc1F (centres undefined)	114	106
112	Cc1ccc(C(=O)Nc2ccc(-c3nc4ccccc4s3)cc2C)cc1C	104	104
